Vaccinia mCherry: qHTS for Stage-Specific Inhibitors of Vaccinia Orthopoxvirus: mCherry Reporter Primary qHTS; Vaccinia virus mCherry reporter infection, fluorescence; about a quarter of the inactives have no number; Potency, µM (top dose mostly 36.5 µM), for inactives: at the top dose activity change, negative = inhibition, most hits filed as inhibitors; hit rate 0.63% among 310,000; AID 720579, 2013; active = well fitted inhibition curve with a large enough effect; inconclusive = small, poorly fitted or top-dose-only effect; inactive = no such curve, though single readings can be large or run the other way; tested in A549 cells; note: nearly all actives have a fitted effect of over 35% in size; inactives centre near -10
VACV Venus inh: qHTS for Stage-Specific Inhibitors of Vaccinia Orthopoxvirus: Venus Reporter Primary qHTS; Vaccinia virus Venus reporter expression, fluorescence; Potency, µM (top dose mostly 36.5 µM), without a hit: top-dose activity change, negative = inhibition, actives largely listed as inhibitors; hit rate 0.46% among 330,000; active means well fitted inhibition curve with a large enough effect; inconclusive means small, poorly fitted or top-dose-only effect; inactive means no such curve, though single readings can be large or run the other way; tested in A549 cells; note: nearly all actives have a fitted effect of over 30% in size; inactives centre near -10
* marks the source's active call; other numbers are inactive results; [ ] = another dose, or the depositor's remark. % is set by controls: 0 for no effect and ±100 for the full control effect; potency is the fitted concentration of half-maximal effect.

What do the screens show for `COC(=O)c1c(N2C(=O)[C@H]3[C@@H](C2=O)[C@]2(C(=O)Nc4c(C)cc(C)cc42)N2CCC[C@@H]32)sc(C)c1C`?
Vaccinia mCherry: -17%; VACV Venus inh: 7%

How did O=C(NC1CCCCC1)/C(=C/c1ccc(Cl)cc1)NC(=O)c1ccccc1 do in these assays?
Vaccinia mCherry: inactive; VACV Venus inh: -2%

Results for Cc1nn(C)cc1NC(=O)Cn1nc(C(F)(F)F)cc1C1CC1 ?
Vaccinia mCherry: -8%; VACV Venus inh: -13%

What do the screens show for `Cc1ccc(-c2nc3n(n2)C(c2ccccc2Cl)C=C(c2ccc(Cl)cc2)N3)cc1` (configuration not stated)?
Vaccinia mCherry: -16%; VACV Venus inh: -16%

How did CCn1nccc1C(=O)Nc1nccs1 do in these assays?
Vaccinia mCherry: -15%; VACV Venus inh: -8%

Results for COc1cc2c(cc1OC)C(COc1ccc(F)cc1)N(C(=O)Cc1ccc(F)cc1)CC2 (configuration not stated) ?
Vaccinia mCherry: 1%; VACV Venus inh: 10%

How did O=C(CN1C(=O)/C(=C2/SC(=S)N(CCS(=O)(=O)O)C2=O)c2ccccc21)Nc1cccc(Br)c1 do in these assays?
Vaccinia mCherry: -10%; VACV Venus inh: 13%

Results for Cc1ccc(CN2C(=O)C[C@@H](NC(=O)OCC3c4ccccc4-c4ccccc43)C/C=C\C2c2ccc(C)cc2)cc1 (some centres not stated) ?
Vaccinia mCherry: -14%; VACV Venus inh: inconclusive

Results for Cn1cnc(S(=O)(=O)N2CCCC(C(=O)NCc3ccccc3)C2)c1 (configuration not stated) ?
Vaccinia mCherry: -7%; VACV Venus inh: -3%

How did CCOc1ccc(C(C(=O)NCC2CCCO2)N(CCc2cccc(C)c2)C(=O)c2snc(C(N)=O)c2N)cc1 (configuration not stated) do in these assays?
Vaccinia mCherry: -15%; VACV Venus inh: -19%

Results for Cc1ccc(S(=O)(=O)N(C)C[C@H]2OCc3cn(nn3)CCCC(=O)N([C@H](C)CO)C[C@@H]2C)cc1 ?
Vaccinia mCherry: inactive; VACV Venus inh: -14%

Results for CCC/C=N/NC(=O)c1ccccc1O ?
Vaccinia mCherry: -13%; VACV Venus inh: -10%

Results for O=C(NCc1ccc(F)cc1)c1ccc(CSCc2cccc(Cl)c2)o1 ?
Vaccinia mCherry: -8%; VACV Venus inh: 5%

Results for O=C(O)C1C(c2ccccc2)c2ccccc2C(O)C1CO (configuration not stated) ?
Vaccinia mCherry: -8%; VACV Venus inh: 4%

How did COc1ccc(C)cc1NC(=O)c1ccc2c(Cl)c3c(nc2c1)CCC3 do in these assays?
Vaccinia mCherry: -4%; VACV Venus inh: 6%

How did Fc1ccc(/C=N/Nc2nc(-c3cccnc3)nc3ccccc23)cc1 do in these assays?
Vaccinia mCherry: inactive[7.34 µM]; VACV Venus inh: -3%[7.34 µM]

Results for O=C(Nc1ccccc1Cl)c1cc(C2CCCCN2S(=O)(=O)c2ccccc2)on1 (configuration not stated) ?
Vaccinia mCherry: 20%; VACV Venus inh: -7%

What do the screens show for `COc1ccc(NC(=O)Cn2c(=O)n(-c3ccc(C)c(C)c3)c(=O)c3c(C)c(C)sc32)cc1`?
Vaccinia mCherry: -20%; VACV Venus inh: -18%

What do the screens show for `COc1cc(C2SCC(=O)N2c2nnc(C34CC5CC(CC(C5)C3)C4)s2)cc(OC)c1OC` (configuration not stated)?
Vaccinia mCherry: inactive; VACV Venus inh: -5%

Results for Cc1ccc(S(=O)(=O)N2CCC(NC(=O)c3cccc(C)c3)CC2)cc1 ?
Vaccinia mCherry: -11%; VACV Venus inh: -11%

Next part, starting with the last six of the part before.
How did COc1ccc(C)cc1NC(=O)c1ccc2c(Cl)c3c(nc2c1)CCC3 do in these assays?
Vaccinia mCherry: -4%; VACV Venus inh: 6%

How did Fc1ccc(/C=N/Nc2nc(-c3cccnc3)nc3ccccc23)cc1 do in these assays?
Vaccinia mCherry: inactive[7.34 µM]; VACV Venus inh: -3%[7.34 µM]

Results for O=C(Nc1ccccc1Cl)c1cc(C2CCCCN2S(=O)(=O)c2ccccc2)on1 (configuration not stated) ?
Vaccinia mCherry: 20%; VACV Venus inh: -7%

What do the screens show for `COc1ccc(NC(=O)Cn2c(=O)n(-c3ccc(C)c(C)c3)c(=O)c3c(C)c(C)sc32)cc1`?
Vaccinia mCherry: -20%; VACV Venus inh: -18%

What do the screens show for `COc1cc(C2SCC(=O)N2c2nnc(C34CC5CC(CC(C5)C3)C4)s2)cc(OC)c1OC` (configuration not stated)?
Vaccinia mCherry: inactive; VACV Venus inh: -5%

Results for Cc1ccc(S(=O)(=O)N2CCC(NC(=O)c3cccc(C)c3)CC2)cc1 ?
Vaccinia mCherry: -11%; VACV Venus inh: -11%

Results for O=C(Cc1cccc2ccccc12)NCCC1=CCCCC1 ?
Vaccinia mCherry: -2%; VACV Venus inh: -9%

Results for NS(=O)(=O)c1ccc(N2N=C(c3ccccc3)CC2c2cccc(F)c2)cc1 (configuration not stated) ?
Vaccinia mCherry: -17%; VACV Venus inh: -29%

What do the screens show for `Cc1cnc2c(c1SCC(=O)NCc1ccccc1Cl)c(=O)n(C)c(=O)n2C`?
Vaccinia mCherry: -11%; VACV Venus inh: 5%

How did CCCSc1nnc(-c2cnn(-c3ccccc3)c2-n2cccc2)n1C do in these assays?
VACV Venus inh: 1%

What do the screens show for `NC(=O)c1cc(NC(=O)CCc2nc3ccccc3s2)cc(C(N)=O)c1`?
Vaccinia mCherry: inactive; VACV Venus inh: -5%

How did O=C(COC(=O)/C=C/c1ccc(S(=O)(=O)N2CCc3ccccc32)cc1)NC1CCS(=O)(=O)C1 (configuration not stated) do in these assays?
Vaccinia mCherry: -9%; VACV Venus inh: -4%

What do the screens show for `COc1ccc(CCN2CNc3c(c(=O)n(C)c(=O)n3C)C2)cc1`?
Vaccinia mCherry: -17%; VACV Venus inh: -17%

What do the screens show for `O=C(COC(=O)c1cccc(S(=O)(=O)NCc2ccccc2)c1)c1ccccc1`?
Vaccinia mCherry: -13%; VACV Venus inh: -13%

Results for COCCNC(=O)CN1C(=O)COc2ccc(S(=O)(=O)N3CCOCC3)cc21 ?
Vaccinia mCherry: -5%; VACV Venus inh: -1%

Results for CC1CCC(N2CCN(c3ccc([N+](=O)[O-])cc3)CC2)CC1 (configuration not stated) ?
Vaccinia mCherry: -4%; VACV Venus inh: -19%

What do the screens show for `CCOc1cc(/C=N/NC(=O)COc2ccccc2C)ccc1OC(=O)c1cccs1`?
Vaccinia mCherry: -12%; VACV Venus inh: -13%

Results for Cc1ccc(C)n1C(CC(=O)O)c1ccc(C#N)cc1 (configuration not stated) ?
Vaccinia mCherry: -14%; VACV Venus inh: -6%

How did CCN1C(=O)C2(C(C(=O)c3cc4ccccc4o3)=C(O)C(=O)N2CCCN(C)C)c2ccccc21 (configuration not stated) do in these assays?
Vaccinia mCherry: -8%; VACV Venus inh: -8%

What do the screens show for `c1cc(CNC2C3CC4CC(C3)CC2C4)ccn1` (configuration not stated)?
Vaccinia mCherry: inactive; VACV Venus inh: -20%

What do the screens show for `CN(Cc1ccc(Cl)cc1)C(=O)CNC(=O)C12CC3CC(CC(C3)C1)C2`?
Vaccinia mCherry: -8%; VACV Venus inh: -19%

How did CN(C)C(CNC(=O)c1ccc2ccccc2c1)c1ccco1 (configuration not stated) do in these assays?
Vaccinia mCherry: 2%; VACV Venus inh: -6%

How did O=C(NCc1ccco1)c1cc([N+](=O)[O-])cc([N+](=O)[O-])c1 do in these assays?
Vaccinia mCherry: -19%; VACV Venus inh: -10%

How did CCN1C(=O)[C@H]2[C@H]3CN=C(SC)N3[C@@](CC)(C(=O)OC)[C@H]2C1=O do in these assays?
Vaccinia mCherry: inactive; VACV Venus inh: -7%

How did CC(c1nnc(SCC(=O)Nc2cccnc2Cl)n1Cc1ccccc1)N(C)C (configuration not stated) do in these assays?
Vaccinia mCherry: -4%; VACV Venus inh: -9%

How did Cc1ccc(-c2cc(-c3ccc(C)cc3)[n+](-c3ccc(C(=O)O)cc3)c(-c3ccc(C)cc3)c2)cc1 do in these assays?
Vaccinia mCherry: inactive; VACV Venus inh: -10%

Results for Cc1cc(Br)ccc1NC(=O)c1ccco1 ?
Vaccinia mCherry: -5%; VACV Venus inh: -5%

Results for Cn1c(CNc2ccc(Br)cc2)nc2ccccc21 ?
Vaccinia mCherry: inconclusive; VACV Venus inh: -16%

How did O=c1oc2ccccc2c(N2CCCC2)c1[N+](=O)[O-] do in these assays?
Vaccinia mCherry: -13%; VACV Venus inh: -2%

Results for CCC(CC)NC(=O)c1cc(OC)c(OC)c(OC)c1 ?
VACV Venus inh: -5%

How did COc1cccc2c(=O)n(CC(=O)N3CCCc4ccccc43)ccc12 do in these assays?
Vaccinia mCherry: -22%; VACV Venus inh: -19%

How did CC(=O)Nc1ccc(NC(=O)c2ccc3c(c2)CCN3S(=O)(=O)c2ccc(Cl)cc2)cc1 do in these assays?
Vaccinia mCherry: inconclusive; VACV Venus inh: -22%

How did C[C@H]([C@@H](N)C(=O)N[C@@H](C(=O)O)[C@@H]1O[C@H](n2ccc(=O)[nH]c2=O)[C@@H](O)[C@H]1O)[C@@H](O)c1ccc(O)cn1 do in these assays?
Vaccinia mCherry: 0%; VACV Venus inh: -18%

How did COc1cc(C(=O)NCC(=O)N/N=C/c2ccc(-c3cccc([N+](=O)[O-])c3)o2)cc(OC)c1OC do in these assays?
Vaccinia mCherry: inconclusive; VACV Venus inh: -29%

Results for COc1ccc(NC(=O)CSc2nnc(Cc3cccn3C)n2-c2ccc(C)cc2)cc1OC ?
Vaccinia mCherry: -12%; VACV Venus inh: -10%

Results for NS(=O)(=O)c1ccc(CCNC(=O)c2cccc3ccccc23)cc1 ?
Vaccinia mCherry: -4%; VACV Venus inh: -10%

What do the screens show for `COc1ccc(-c2nn(-c3ccccc3)cc2C2CC(c3cccs3)=NN2C(=O)CCCC(=O)O)cc1` (configuration not stated)?
Vaccinia mCherry: -15%; VACV Venus inh: -8%

What do the screens show for `C/C(=N\NC(=O)c1ccc(Cl)c(S(=O)(=O)Nc2ccccc2Cl)c1)c1ccncc1`?
Vaccinia mCherry: inactive; VACV Venus inh: -11%

Results for CC(=O)N1CCN(CCN(CC2C(C)C=C(C)CC2C)C(C)=O)CC1 (configuration not stated) ?
VACV Venus inh: -16%

What do the screens show for `CC1CN(C(=O)N(C)C)CCN1C(=O)N(C)C` (configuration not stated)?
VACV Venus inh: 0%

How did O=C(c1ccco1)c1nnn(Cc2ccccc2)c1-c1ccccc1 do in these assays?
Vaccinia mCherry: inconclusive; VACV Venus inh: -6%

What do the screens show for `COc1ccc(C(C(=O)NCC2CCCO2)N(Cc2cccs2)C(=O)c2snc(C(N)=O)c2N)cc1OC` (configuration not stated)?
Vaccinia mCherry: -12%; VACV Venus inh: -18%

How did O=[N+]([O-])c1cnc(N2CCCCC2)c([N+](=O)[O-])c1 do in these assays?
Vaccinia mCherry: -19%; VACV Venus inh: -5%

What do the screens show for `O=C(NCc1ccccn1)C(=O)NCC1OCCCN1S(=O)(=O)c1cc(F)ccc1F` (configuration not stated)?
Vaccinia mCherry: inactive; VACV Venus inh: -11%

How did Cc1ccc(S(=O)(=O)Nc2cccc3c2O[C@H](CN(C)C(=O)Nc2ccc(C(F)(F)F)cc2)[C@@H](C)CN([C@H](C)CO)C3=O)cc1 do in these assays?
Vaccinia mCherry: inactive; VACV Venus inh: inconclusive

What do the screens show for `CCOc1ccccc1NC(=O)CSc1nnc(-c2ccco2)o1`?
Vaccinia mCherry: -9%; VACV Venus inh: -19%

Already shown: entries from further up.
What do the screens show for `CC1CN(C(=O)N(C)C)CCN1C(=O)N(C)C` (configuration not stated)?
VACV Venus inh: 0%

How did O=C(c1ccco1)c1nnn(Cc2ccccc2)c1-c1ccccc1 do in these assays?
Vaccinia mCherry: inconclusive; VACV Venus inh: -6%

What do the screens show for `COc1ccc(C(C(=O)NCC2CCCO2)N(Cc2cccs2)C(=O)c2snc(C(N)=O)c2N)cc1OC` (configuration not stated)?
Vaccinia mCherry: -12%; VACV Venus inh: -18%

Additional records follow.
What do the screens show for `Cc1ccc(C(=O)c2cc3c(cc2[N+](=O)[O-])OCCO3)cc1`?
Vaccinia mCherry: 2%; VACV Venus inh: 6%

Results for CCN1C(=O)[C@H]2[C@@H](c3ccc(-c4ccc(OC)cc4)cc3)N3CCCC[C@@]3(C(=O)OC)[C@H]2C1=O ?
Vaccinia mCherry: -10%; VACV Venus inh: inconclusive

What do the screens show for `COc1cc(C(=O)OCC(=O)Nc2cc(C)on2)ccc1OCc1ccccc1Cl`?
Vaccinia mCherry: -2%; VACV Venus inh: -4%

How did CCN(CC)CCn1c(=S)[nH]c2cc(C(=O)N3CC(C)CC(C)C3)ccc2c1=O (configuration not stated) do in these assays?
Vaccinia mCherry: -11%; VACV Venus inh: -2%

Results for S=C(Cc1cccnc1)N1CCOCC1 ?
Vaccinia mCherry: inactive; VACV Venus inh: -7%

Results for CC(=O)c1ccc(NC(=O)CSc2nnc(N)s2)cc1 ?
Vaccinia mCherry: -3%; VACV Venus inh: -2%

What do the screens show for `COc1cccc(C2C(C(=O)Nc3ccccc3)=C(C)N=c3s/c(=C/c4ccc(OCC(=O)O)cc4)c(=O)n32)c1` (configuration not stated)?
Vaccinia mCherry: inactive; VACV Venus inh: -6%

What do the screens show for `O=C1CCc2cc(S(=O)(=O)N3CCCC3C(=O)N3CCN(c4ccccc4)CC3)ccc2N1` (configuration not stated)?
Vaccinia mCherry: inactive; VACV Venus inh: -5%

Results for CC(=O)Nc1nnc(-c2ccc(Cl)s2)o1 ?
Vaccinia mCherry: inactive; VACV Venus inh: -15%

Compounds as they come; any-hit rate near 0.82%.
